HPGD inh = HPGD (human) dehydrogenase inhibition. P15428. purified HPGD, NADH fluorescence kinetic, PGE2 substrate. Potency, µM, for inactives: at the top dose activity change, negative = inhibition, actives largely listed as inhibitors. 150,000 tested, 4.3% active. AID 894; active = well fitted inhibition curve with a large enough effect (not every such curve was filed as active); inconclusive = small, poorly fitted or top-dose-only effect, or another doubt; inactive = no such curve, though single readings can be large or run the other way;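 further: top concentration of the series not given in the record; plate controls included wells without enzyme; inactives centre near -10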
Target sequence (P15428 whole entry, looked up): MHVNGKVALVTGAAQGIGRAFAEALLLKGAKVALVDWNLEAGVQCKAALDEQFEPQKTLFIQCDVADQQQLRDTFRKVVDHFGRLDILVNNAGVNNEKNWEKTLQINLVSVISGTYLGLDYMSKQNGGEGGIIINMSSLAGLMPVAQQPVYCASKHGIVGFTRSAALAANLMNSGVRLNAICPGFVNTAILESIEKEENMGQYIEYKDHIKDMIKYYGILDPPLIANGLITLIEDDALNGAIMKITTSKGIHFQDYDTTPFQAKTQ
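20 nM HPGD preincubated 15 min at room temperature with compound in 50 mM Tris-HCl pH 8, 0.01% Tween 20. Started with 1 mM NAD+ and 30 uM prostaglandin E2; NADH fluorescence (360/450 nm) read 5 times over 30-s intervals, last minus first.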
* marks the source's active call; other numbers are inactive results; ? = inconclusive; & = joins results of further samples. On the % scale 0 is the no-effect control and ±100 the full control effect; potency means the concentration at half of the fitted maximal effect. This is a subset; rates above refer to the full screens.

SMILES | HPGD inh
O=c1[nH]c(C2CCCN(S(=O)(=O)c3ccccc3)C2)nc2c1nnn2Cc1ccccc1F (stereo not drawn) | 13µM*
Cc1occc1-c1nnc(SCC(=O)c2ccc(F)cc2)o1 | ?
O=C(NC1CCCCC1)NC1CCN(S(=O)(=O)c2ccc3c(c2)OCCO3)CC1 | -5%
O=C(C(c1ccccc1)c1ccccc1)N1CCN(Cc2ccco2)CC1 | -20%
CCc1ccc2[nH]c(=O)c(C(c3nnnn3CCOC)N3CCN(c4ccccc4)CC3)cc2c1 (stereo not drawn) | -5%
Cc1c(C(=O)OCC(C)C)[nH]c2c1C(=O)CC(c1cccs1)C2 (stereo not drawn) | -5%
O=S(=O)(c1cccc(S(=O)(=O)N2CCN(c3ncccn3)CC2)c1)N1CCOCC1 | -13%
CCOC(=O)CC1=C(C(=O)OCC)C(c2cccs2)C(C#N)=C(N)O1 (stereo not drawn) | -5%
O=S1(=O)N=C(N/N=C/c2ccccn2)c2ccccc21 | -15%
COc1ccc2[nH]c(=O)c(CN(C3CCCCC3)C(c3nnnn3Cc3ccco3)C(C)C)cc2c1 (stereo not drawn) | ?
COc1ccc(OCC(=O)N/N=C/c2ccc(O[C@@H]3O[C@H](CO)[C@@H](O)[C@H](O)[C@H]3O)cc2)cc1 | -5%
Cc1noc(C)c1COc1ccc(C(=O)OCC(=O)N2CC(=O)Nc3ccccc32)cc1 | -23%
COC(=O)c1ccc(NC(=S)NCCC2=CCCCC2)cc1 | -16%
Cn1c(=O)cc(OCC(=O)NCc2ccccn2)c2ccccc21 | -13%
CCOC(=O)c1[nH]c(COC(=O)C2CC(=O)N(Cc3ccccc3)C2)c(C(=O)OCC)c1C (stereo not drawn) | 28µM*
CCS(=O)(=O)c1ccc2oc(SCC(=O)c3ccco3)nc2c1 | -4%
Cc1ccccc1-c1nc(CN2CCCC(C(=O)NCc3cccnc3)C2)c(C)o1 (stereo not drawn) | -4%
COc1ccc(-c2coc3c(O)c(OC)ccc3c2=O)cc1 | -17%
CCCNC(=O)CN1C(=O)NC2(CCCc3cc(OC)ccc32)C1=O (stereo not drawn) | -8%
COc1ccc2nc(NC(=O)CSc3nc(C)cc(C)n3)sc2c1 | -8%
NC(=O)c1ccc(OCC(F)(F)C(F)(F)C(F)(F)C(F)(F)C(F)(F)C(F)F)cc1 | -15%
CC1CCCC(NC(=O)c2cn(C)c3ccc(S(=O)(=O)N4CCCC4)cc3c2=O)C1C (stereo not drawn) | -11%
Cc1ccc2cc(CN(Cc3ccco3)C(=O)c3ccccc3)c(=O)[nH]c2c1C | -26%
O=C(CC1CCCCC1)NCc1cn2ccsc2n1 | 22µM*
O=Cc1ccc(N2CCCCCC2)cc1 | -30%

Molecules above that contain a thiophene ring, fused or not, in the order listed:
SMILES | HPGD inh
Cc1c(C(=O)OCC(C)C)[nH]c2c1C(=O)CC(c1cccs1)C2 (stereo not drawn) | -5%
CCOC(=O)CC1=C(C(=O)OCC)C(c2cccs2)C(C#N)=C(N)O1 (stereo not drawn) | -5%

Next results
SMILES | HPGD inh
C=CCN(CC=C)Cc1c(C)[nH]c2ccc(C(=O)OCC)cc2c1=O | ?
Cc1ccccc1NC(=O)CSc1ccsc1[N+](=O)[O-] | ?
CCN(CC)CCOCCOC(=O)C1(c2ccccc2)CCCC1 | 5%&-2%&-3%&-4%
COC(=O)c1cc(OC)c(OC)cc1NC(=O)c1ccc(OC)c(OC)c1 | 9%
O=C(Nc1ccc(-n2nncc2-c2ccco2)cc1)c1ccc(F)cc1 | -21%
O=C(NNS(=O)(=O)c1ccc(Cl)cc1)c1ccc(S(=O)(=O)N2CCCCC2)cc1 | -6%
CCOC(=O)CNS(=O)(=O)CCN1C(=O)c2ccccc2C1=O | 3%
Cc1cc(/C=N/n2cnnc2)c(C)n1-c1ccc(OCc2ccc(Cl)cc2Cl)cc1 | ?
CCN(CC)c1nc(N)c2c(N)n(-c3ccccc3C)c(=S)c(C#N)c2c1C#N | 20µM*
O=C(CSc1nc(C2CC2)nc2ccccc12)NCc1ccc2c(c1)OCO2 | -9%
CC(C)OP(=O)(c1ccc(N(C)C)cc1)C(O)c1ccccc1F (stereo not drawn) | -11%
Cc1cccc(C(=O)N/N=C/c2ccc(OC3CSC3)cc2)c1 | -7%
CC(=O)NC(Cc1ccccc1)C(=O)NC1CCN(c2ncccc2[N+](=O)[O-])CC1 (stereo not drawn) | -3%
Cc1ccccc1NC(=O)/C(C#N)=C/c1ccccc1C(F)(F)F | -13%
CCOC(=O)CCC(=O)N1CCOCCN(C(=O)CCC(=O)OCC)CCOCC1 | -6%
CC(=O)N1CCC2(CCCN(Cc3cc(C(F)(F)F)cc(C(F)(F)F)c3)C2)CC1 | -6%
CCn1c(/C=C/Nc2ccccc2)[n+](CC)c2ccc(Cl)cc21 | -6%
COc1ccc(S(=O)(=O)N(C(=O)c2ccncc2)c2ccc3oc4c(c3c2)CCCC4)cc1 | -18%
O=C(/C=C/c1ccccc1)N(c1ccccn1)C1CCCCC1 | -9%
Cc1cc(C)n(-c2nc3ccccc3nc2Nc2ccc(CC(=O)O)cc2)n1 | -10%
CCn1c2ccccc2c2cc(NC(=O)CCCN3C(=O)CCC3=O)ccc21 | -15%
CO[C@H]1C=CO[C@@]2(C)Oc3c(C)c(O)c4c(O)c(c(C=NN5CCN(C)CC5)c(O)c4c3C2=O)NC(=O)C(C)=CC=C[C@H](C)[C@H](O)[C@@H](C)[C@@H](O)[C@@H](C)[C@H](OC(C)=O)[C@@H]1C | 25µM*
Nc1ccccc1C(=O)NNc1ncc(C(F)(F)F)cc1Cl | -19%
Cn1c(=O)c2c(nc(CN3CCOCC3)n2CCN2CCOCC2)n(C)c1=O | -15%
C=CCc1cc(Cl)ccc1OCCCNC(C)C | -2%
SMILES | HPGD inh
CC(C)CCNC(=O)NC(=O)CN1C(=O)NC2(CCCCC2)C1=O | 7%
CCOCCCNC(=O)C(NC(=O)c1ccc(=O)[nH]c1)c1ccc(Cl)cc1 (stereo not drawn) | -9%
O=C(Cn1cc(SCc2ccccc2Cl)c2ccccc21)N1CCOCC1 | -26%
COc1cc(O)c(C(=O)/C=C/c2ccc(OC)c(O)c2)c(OC)c1 | 7.9µM*
COc1ccc(NC(=O)c2c(-c3ccccc3)noc2C)c(OC)c1 | -1%
CCC(C)NS(=O)(=O)c1ccc(NC(=O)CCC2CCCCC2)cc1 (stereo not drawn) | -6%
CCOc1ncccc1C(=O)OCC(=O)N1CCN(S(=O)(=O)c2ccccc2)CC1 | -1%
CCCNC(=O)NC(=O)CSc1ncc(C(F)(F)F)cc1Cl | -10%
CC1(C)Cc2ccccc2C(/C(=N\Nc2cccc(Cl)c2)C(N)=O)=N1 | -9%
CCN(CC)S(=O)(=O)c1ccc(C)c(NC(=O)CSc2nc3ccccc3[nH]2)c1 | -3%
Nc1c(C(=O)NCC2CCCO2)c2nc3ccccc3nc2n1-c1ccccc1 (stereo not drawn) | ?
COc1cc(/C=C2\SC(=S)NC2=O)ccc1OS(=O)(=O)c1ccccc1 | 8.9µM*
COC(=O)c1c(C)nc(C)c2c(=O)oc3ccccc3c12 | -16%
CC(=O)O[C@]1(C(C)=O)CC[C@H]2[C@@H]3C=C(Cl)C4=CC(=O)CC[C@]4(C)[C@H]3CC[C@@]21C | -7%&-4%
COC(CN(C(=O)CCl)C(C(=O)NC1CCCC(C)C1C)c1ccc(C)cc1)OC (stereo not drawn) | 2%
CCc1nnc(NC(=O)c2cccnc2)s1 | -15%
CCCn1nc(CC(=O)OCC)c2ccccc2c1=O | -15%
O=C1OCCC1Sc1nnc(-c2cccc(Br)c2)o1 (stereo not drawn) | -1%
CC(C)(C)NC(=O)CSC(=Nc1ccc(F)cc1)NC#N | -3%
CC(NC(=O)CSc1nc(=O)cc(N)n1-c1ccccc1)c1ccccc1 (stereo not drawn) | -1%
COC(=O)c1ccccc1OC(=O)c1ccc(Br)o1 | -8%
CCN(CC)c1ccc(/C=N/N2CCN(Cc3cccc4ccccc34)CC2)c(O)c1 | -17%
Cc1cc(CNC(=O)Cc2c(F)cccc2Cl)nn1C | -4%
O=C(COC(=O)c1ccccn1)NC12CC3CC(CC(C3)C1)C2 | 0%
CN(C)S(=O)(=O)c1cccc(NS(=O)(=O)c2ccc(Cl)s2)c1 | -3%
SMILES | HPGD inh
C/C(Cc1ccccc1)=N\NC(=O)CCCCCC(=O)N/N=C(\C)Cc1ccccc1 | -1%
N=c1c2c(-c3ccccc3)c(-c3ccccc3)n(Cc3ccco3)c2ncn1CCCn1ccnc1 | 6%
COc1ccc(Cl)cc1N/C(N)=N/c1nc(CSc2ccc(C)cc2)cc(=O)[nH]1 | -15%
Cc1ccc(-c2ccc(SCC(=O)N3CCCc4ccccc43)nn2)cc1 | -11%
CCOc1ccc(Oc2cc(C)nc(SC)n2)nn1 | -7%
Cc1c(C(=O)NCc2ccc3c(c2)OCO3)sc2nc(-c3ccccc3)cn12 | ?
CC(C)(C)NC(=O)CN(C(=O)CSc1nnc(COc2ccccc2)o1)c1cccc(F)c1 | -1%
COc1ccc(CCNC(=O)c2sc(=S)n(C)c2N)cc1 | -16%
COC(=O)c1ccc(CSc2nnc3sc4ccccc4n23)o1 | -16%
COc1ccccc1N1CCN(CCCCCCOc2ccc(F)cc2)CC1 | -9%
CC(=O)OC(C(=O)NCc1ccco1)c1cccnc1 (stereo not drawn) | -5%
CN(C)c1ccc(N=NS(=O)(=O)O)cc1 | -16%
COc1ccc(Cn2cnc3c([N+](=O)[O-])c(C)c(C)cc32)cc1 | -5%
O=C(CNS(=O)(=O)c1ccccc1)OCC(=O)c1ccc(OC(=O)c2ccccc2)cc1 | -3%
Cc1ccccc1OCc1nc2ccccc2c(=O)n1N | -8%
CCN(CC)C(=O)CSc1nc(O)cc(=O)n1-c1ccccc1OC | -7%
CCCn1c(=O)c2ccccc2n2c(SCC(=O)/C(C#N)=C(\C)N)nnc12 | 0%
CCOC(=O)N1CCN(C(=O)C(NS(=O)(=O)c2cccc3nsnc23)c2ccccc2)CC1 (stereo not drawn) | -14%
Cc1ccc(NC(=S)NC2CC3CCC(C2)N3Cc2ccco2)cc1C (stereo not drawn) | -7%
NC(=O)C1CCN(CCC(=O)Nc2ccc(Br)cc2)CC1 | -20%
Cn1c(=O)c(Nc2ccc(O)cc2)c2c3c(cccc31)C(=O)c1ccccc1-2 | 25µM*
COC(=O)CCc1c(C)c(C(=O)c2ccco2)c2ccccn12 | -18%
CCOc1ccccc1NC(=O)C1CCCN(S(=O)(=O)c2cccc3cccnc23)C1 (stereo not drawn) | -8%
C=CCNc1nc(SCC=C)nc2ccsc12 | -11%
C/C(=N\OC(=O)c1ccc(Cl)cc1)c1sc(-c2ccccc2)nc1C | ?
SMILES | HPGD inh
O=Cc1c(N2CCCCCC2)nc2ccccn2c1=O | -20%
CCOc1ccc(N(CC(=O)NCc2ccco2)S(=O)(=O)c2ccc(OC)c(OC)c2)cc1 | 5%
C/C=C/C=N/NC(=O)CN(c1ccc(Br)cc1)S(=O)(=O)c1ccccc1 | -3%
COc1ccc(Cl)cc1CSc1n[nH]c(C)n1 | 16µM*
CCN1CCN(c2cc3c(nn2)Oc2ccccc2N3C)CC1 | ?
c1ccc(-c2csc3ncn4nnnc4c23)cc1 | ?
O=C(CCN1C(=O)c2ccccc2C1=O)N1CCN(C2c3ccccc3-c3ccccc32)CC1 | -8%
O=C(NCc1cccnc1)C(=O)NCC1OCCN1S(=O)(=O)c1ccc(F)cc1 (stereo not drawn) | -13%
Cc1ccc(N(C(=O)Cn2nnc3ccccc32)C(C(=O)NCc2ccco2)c2ccc(C)o2)cc1 (stereo not drawn) | -8%
CCCc1nnc(SCC(=O)Nc2ccc(OC)cc2)n1N | -11%
O=C(c1ccncc1)N1CCN(c2ccc(F)cc2)CC1 | -12%
CC1CCc2nn(CC(=O)NCCN3CCCCC3C)cc2C1 (stereo not drawn) | -14%
CCCOc1ccc(C(=O)C(CN2CCOCC2)c2ccccc2)cc1 (stereo not drawn) | -3%
Cc1ccc(S(=O)(=O)NC(CC(N)=O)C(=O)O)cc1 (stereo not drawn) | -5%
COCCCN=CC1=C(O)CC(C)(C)CC1=O | -6%
CCOC(=O)c1c(CC(C)C)csc1NC(C)=O | -4%

Gathered by group: those above with fluorine (15)
SMILES | HPGD inh
O=c1[nH]c(C2CCCN(S(=O)(=O)c3ccccc3)C2)nc2c1nnn2Cc1ccccc1F (stereo not drawn) | 13µM*
Cc1occc1-c1nnc(SCC(=O)c2ccc(F)cc2)o1 | ?
NC(=O)c1ccc(OCC(F)(F)C(F)(F)C(F)(F)C(F)(F)C(F)(F)C(F)F)cc1 | -15%
O=C(Nc1ccc(-n2nncc2-c2ccco2)cc1)c1ccc(F)cc1 | -21%
CC(C)OP(=O)(c1ccc(N(C)C)cc1)C(O)c1ccccc1F (stereo not drawn) | -11%
Cc1ccccc1NC(=O)/C(C#N)=C/c1ccccc1C(F)(F)F | -13%
CC(=O)N1CCC2(CCCN(Cc3cc(C(F)(F)F)cc(C(F)(F)F)c3)C2)CC1 | -6%
Nc1ccccc1C(=O)NNc1ncc(C(F)(F)F)cc1Cl | -19%
CCCNC(=O)NC(=O)CSc1ncc(C(F)(F)F)cc1Cl | -10%
CC(C)(C)NC(=O)CSC(=Nc1ccc(F)cc1)NC#N | -3%
Cc1cc(CNC(=O)Cc2c(F)cccc2Cl)nn1C | -4%
CC(C)(C)NC(=O)CN(C(=O)CSc1nnc(COc2ccccc2)o1)c1cccc(F)c1 | -1%
COc1ccccc1N1CCN(CCCCCCOc2ccc(F)cc2)CC1 | -9%
O=C(NCc1cccnc1)C(=O)NCC1OCCN1S(=O)(=O)c1ccc(F)cc1 (stereo not drawn) | -13%
O=C(c1ccncc1)N1CCN(c2ccc(F)cc2)CC1 | -12%
